From PubChem BioAssay
miR-21 reporter = raises the signal of a miR-21 reporter; HeLa miR-21 FLuc reporter, luciferase, 48 h; Potency, µM (doses to about 38.3 µM), without a hit: at the highest dose reporter change, positive = more light; 340,000 tested, under 10 active; AID 2288; active = well fitted rising curve with a large enough effect; inconclusive = small, poorly fitted or top-dose-only effect; inactive = no such curve, though single readings can be large or run the other way;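 further: % of control where 0% means no effect; miR-21 action dims this reporter so a rising signal means less miR-21 action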
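HeLa cells stably expressing CMV-driven firefly luciferase with a downstream miR-21 binding sequence, endogenously expressing miR-21, were treated with titrations (up to about 40uM final) for 48 hours at 37 degree Celsius. Luciferase luminescence was read after lysis.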
GLA inh pH 4.5 = alpha-galactosidase A (human) inhibition, pH 4.5; P06280; purified enzyme, 4-MU-alpha-Gal fluorescence, pH 4.5; activity change, negative = inhibition, % at 105 µM; 230,000 tested, under 10 active; AID 1467; inconclusive = small, poorly fitted or top-dose-only inhibition, or a rising curve; inactive = flat fitted curve, though single readings scatter; no compound was filed as active;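 further: 0% = full activity with enzyme and -100% = basal without enzyme; dose as in the result columns while the protocol names 77 µM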
Rango dissoc inh = inhibitors of RanGTP-induced Rango-importin beta complex dissociation | Potency, µM (top dose mostly 46.1 µM), for inactives: at the highest dose activity change, negative = inhibition | Biochemical FRET Rango-importin beta, RanGTP-induced dissociation | 340,000 compounds, 0.071% hits | O95149+P62826; active means falling FRET ratio curve, often poorly fitted, with flat reads before Ran was added; inconclusive means other falling curves, or compound fluorescence or quenching; inactive means flat or rising ratio curve;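 further: potency means the concentration at half of the fitted maximal effect; % of control where 0% means no effect; nearly all actives have a fitted effect of over 45% in size; -100% = wells without RanGTP and RCC1; the record marks most hits as doubtful in a second field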
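Rango FRET biosensor (snurportin-1 IBB flanked by N-terminal EYFP and C-terminal CFP10) at 0.1 uM, with 0.25 uM importin beta in PBS, 1mM DTT, 0.02% Tween-20, 0.1% BSA. 0.6 uM Ran, 2mM GTP and 0.2 uM RCC1 were then added for 45 min at room temperature. Inhibition read as loss of FRET rise.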
Rango-impB inh = Rango-importin beta binding inhibition; Q14974; Rango CFP/YFP FRET sensor + importin beta, 45 min; Potency, µM (top dose mostly 92.2 µM), for inactives: at the top dose inhibition of complex formation; 340,000 compounds, 0.031% hits; active = rising FRET ratio curve, often small or poorly fitted; inconclusive = mostly compound fluorescence or quenching in the first reads; inactive = flat curves in all reads;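 further: potency means the concentration at half of the fitted maximal effect; 0% = DMSO wells and 100% = buffer wells lacking importin beta; nearly all actives have a fitted effect of over 15% in size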
Target sequence (Q14974 whole entry, looked up): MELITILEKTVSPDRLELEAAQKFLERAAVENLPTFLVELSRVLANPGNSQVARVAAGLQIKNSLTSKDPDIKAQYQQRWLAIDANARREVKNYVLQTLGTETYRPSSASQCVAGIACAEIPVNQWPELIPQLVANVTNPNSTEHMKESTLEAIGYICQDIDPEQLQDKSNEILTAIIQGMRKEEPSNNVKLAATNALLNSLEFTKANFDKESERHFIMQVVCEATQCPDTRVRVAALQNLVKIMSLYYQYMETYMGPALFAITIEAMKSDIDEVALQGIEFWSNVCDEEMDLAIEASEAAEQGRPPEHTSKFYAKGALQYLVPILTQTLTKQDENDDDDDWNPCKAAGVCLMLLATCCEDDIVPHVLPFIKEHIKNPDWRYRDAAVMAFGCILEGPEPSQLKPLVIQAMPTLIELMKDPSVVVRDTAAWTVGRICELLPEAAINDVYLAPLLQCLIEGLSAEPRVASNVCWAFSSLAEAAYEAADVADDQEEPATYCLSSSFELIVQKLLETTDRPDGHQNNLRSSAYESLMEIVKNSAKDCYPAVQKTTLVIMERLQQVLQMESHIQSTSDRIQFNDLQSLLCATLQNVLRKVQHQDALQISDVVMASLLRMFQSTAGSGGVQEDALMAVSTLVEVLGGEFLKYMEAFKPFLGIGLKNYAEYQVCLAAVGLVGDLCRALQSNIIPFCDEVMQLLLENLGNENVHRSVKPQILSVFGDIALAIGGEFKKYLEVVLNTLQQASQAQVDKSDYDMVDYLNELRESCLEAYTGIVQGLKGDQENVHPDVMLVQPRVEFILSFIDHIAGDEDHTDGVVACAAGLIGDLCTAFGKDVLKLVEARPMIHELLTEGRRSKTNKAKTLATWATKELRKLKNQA
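FRET biosensor Rango (snurportin 1 IBB between N-terminal EYFP and C-terminal Cerulean), 50 nM in PBS/1 mM DTT/0.02% Tween-20/0.1% BSA, preincubated 5 min RT with compound; 0.125 microM importin beta added, 45 min RT, CFP/YFP FRET ratio read.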
Active calls of the source: *; u = inconclusive; x = no result given; & = joins results of further samples. This is a subset; count on the stated rates, not on these rows.

| molecule | Rango dissoc inh | Rango-impB inh | miR-21 reporter | GLA inh pH 4.5 |
| --- | --- | --- | --- | --- |
| CS(=O)(=O)n1nc(OC(=O)c2cc(Br)ccc2Cl)cc1N | -5% | 1.3% | 1% | -9 |
| CC(NC(=O)c1ccco1)c1nc(-c2ccccc2Cl)no1 (stereo not given) | -12% | -4.3% | -3% | x |
| COc1cc(OC)cc(C(=O)Nc2ccc(Cn3ccnc3)cc2)c1 | -14% | 0.0% | -4% | x |
| O=C1CC(N2CCN(c3ccccc3F)CC2)C(=O)N1c1ccc2c(c1)OCCO2 (stereo not given) | -5% | -0.7% | -9% | 8 |
| CCCc1nc2ccccc2c(=O)n1-c1c(C)n(C)n(-c2ccccc2)c1=O | -1% | -2.1% | -4% | -4 |
| COc1ccccc1C(CNc1ccc(S(=O)(=O)N2CCCC2)cc1[N+](=O)[O-])N(C)C (stereo not given) | 30% | -2.4% | 20% | x |
| CCN(CC(=O)Nc1ccc(NC(C)=O)cc1)C(=O)c1cc([N+](=O)[O-])ccc1Sc1ccc(Cl)cc1 | 12% | -1.5% | x | x |
| O=C1c2ccccc2C(=O)N1CCSc1nnc(-c2ccco2)n1Cc1ccccc1 | 15% | -4.3% | -19% | 4 |
| Cn1c(=O)n(C)c2cc(/C=N/N=C3/NC(=O)C(CC(=O)O)S3)ccc21 (stereo not given) | 4% | 0.8% | -2% | 2 |
| O=C(COc1ccc2ccc(=O)oc2c1)NCC(O)c1ccccc1 (stereo not given) | 2% | -2.3% | -1% | x |
| CCOC(=O)c1ccc(N/C=C2/CCCC(C)C2=O)cc1 (stereo not given) | 10% | 0.8% | -53% | -8 |
| O=[N+]([O-])c1cccnc1N/N=C/c1ccccc1O | 2% | -4.0% | -47% | -2 |
| Cc1cc(C)cc(-n2c3nc4ccccc4nc3c3c(=O)n(Cc4ccco4)cnc32)c1 | -4% | u | u | -5 |
| Cc1ccc(NC(=O)NC(=O)N(C2CCCCC2)S(=O)(=O)c2ccccc2)cc1 | -15% | 1.0% | -62% | 6 |
| CCn1cc(/C=N/NC(=O)c2ccc3c(c2)OCO3)c(C)n1 | 9% | -4.3% | -13% | 5 |
| COc1ccc(S(=O)(=O)N2CCOCC2)cc1C(=O)Nc1ccc(N2CCCCCC2)cc1 | 4% | u | x | x |
| O=C(/C=C/Nc1cccc([N+](=O)[O-])c1)c1ccco1 | 2% | 12% | x | x |
| O=C(Cc1ncc(C(F)(F)F)cc1Cl)NCc1ccco1 | 4% | 0.3% | 3% | 8 |
| COC(=O)C1=C(C(=O)OC)C2C(C)=CC(C)=CN2C(C(=O)OC)=C1C(=O)OC (stereo not given) | u | u | -6% | 7 |
| CCC(C(=O)NC1CCCCC1)n1c(SCc2ccccc2F)nc2ccncc21 (stereo not given) | -14% | 0.2% | -8%&-26% | 2 |
| Cc1c(NC(=S)NC(=O)c2ccco2)cccc1-c1nc2ncccc2o1 | 3% | -2.3% | -7% | -2 |
| CC(C)(C)c1[nH]nc2c1C(c1ccccc1OC(=O)N1CCOCC1)C(C#N)=C(N)O2 (stereo not given) | -9% | 0.9% | 4% | 5 |
| Cc1nn(C)c(C)c1S(=O)(=O)N1CCCC(C(=O)NC2CCCCCC2)C1 (stereo not given) | -7% | 0.6% | -14% | 6 |
| COc1cc(/C=N/NC(=O)c2ccc(C)nc2)cc([N+](=O)[O-])c1O | -1% | 4.1% | 5% | -3 |
| CCCCNC(=O)CCCN1C(=O)c2cccnc2Sc2ccccc21 | 26% | 3.2% | 0% | x |
| CCSc1nnc(NC(=O)c2cccc(OCc3c(C)noc3C)c2)s1 | 0% | -0.3% | -11% | 1 |
| CCCNC(=S)N1CCCC(c2nc3ccccc3[nH]2)C1 (stereo not given) | -2% | 4.6% | -1% | -8 |
| COC(=O)N/N=C(\C)c1ccc(OC(F)F)cc1 | 6% | -2.4% | -32% | 0 |
| Cc1cc(S(=O)(=O)Nc2cccnc2)c(C)s1 | 20% | 0.2% | -3% | -8 |
| Cc1cc(Cl)ccc1OCC(=O)OCC(=O)N1CCC(C(N)=O)CC1 | 7% | -2.6% | x | x |
| N=C1/C(=C/c2cccn2CCOc2ccccc2)C(=O)N=C2SC=C(c3ccccc3)N12 | u | u | 9% | -13 |
| COc1ccc(CCN2C(=O)c3cccc4c(C(=O)N5CCCCC5)ccc(c34)C2=O)cc1OC | 4% | 0.7% | 1% | -5 |
| CC1CCN(C(=O)/C(=C\c2cccs2)NC(=O)c2ccccc2)CC1 | 5% | 1.0% | -31% | 4 |
| CCCC(C)NC(=O)c1ccc(C2SCC(=O)N2Cc2ccco2)cc1 (stereo not given) | 11% | 2.5% | -2% | 6 |
| CC(C(=O)N1CCCCC1)N(C)CC(=O)Nc1ccc(Cl)cc1 (stereo not given) | 16% | 0.6% | -1% | 3 |
| CCCc1nc(NCCCOCC)c2nnn(Cc3ccccc3)c2n1 | -12% | -3.0% | -2% | x |
| COc1ccccc1-n1c(SCC(=O)O)nc2sc3c(c2c1=O)CCC3 | 12% | 3.1% | 5% | -7 |
| COc1cc(NS(=O)(=O)c2c(C)[nH]c(C)c2C(=O)N2CCCC2)cc(OC)c1OC | 2% | 0.8% | -3% | x |
| Cc1cc(C)c(NC(=O)C2CCCO2)c(C)c1NC(=O)C1CCCO1 (stereo not given) | 1% | 1.3% | -3% | x |
| CC(C)c1ccc(/C=C/C(=O)NC(=S)Nc2ccc(CN3CCOCC3)cc2)cc1 | -12% | -1.0% | 15% | -1 |
| Cc1cc(C)c(C(=O)CN2C(=O)NC3(CCCCC3)C2=O)cc1C | -1% | -3.8% | -20% | 1 |
| Cc1ccc(C(=O)NN=Cc2ccc3c(c2)OCO3)cc1 | 26% | 3.3% | x | x |
| COC(=O)c1cc2n(n1)CCN(Cc1cccc(OC)c1)C2=O | -18% | -1.2% | 2% | 4 |
| COc1ccc(S(=O)(=O)NC2CC(C)(C)NC(C)(C)C2)c(C)c1C | x | x | -3% | -14 |
| COc1ccccc1N1CCN(CC(O)COc2ccc(S(=O)(=O)N3CCOCC3)cc2)CC1 (stereo not given) | 23% | 5.8% | 13% | 1 |
| Cc1oc(-c2ccccc2F)nc1CS(=O)(=O)CC(=O)NCCCc1ccccc1 | -7% | 2.6% | -2% | 0 |
| COc1cccc(C2C(C(=O)NCc3ccccc3)=C(C)Nc3ncnn32)c1 (stereo not given) | 2% | 3.3% | -6% | 3 |
| CSc1cc(-c2ccccc2)n(Cc2ccccc2Cl)c(=O)c1C#N | 10% | -0.7% | 1% | 5 |
| Clc1cccc(-c2csc(Nc3cccnc3)n2)c1 | 1% | 5.7% | -18% | -13 |
| Oc1ccc(-c2cccc(-c3ccc(O)cc3)c2)cc1 | -7% | 2.8% | -45% | x |
| CC(=O)c1cccc(NC(=O)Nc2cccs2)c1 | 14% | -0.9% | -5% | 2 |
| CC(=O)c1ccc(NC(=O)c2ccc(NC(=O)c3ccco3)cc2)cc1 | 3% | -5.2% | 4% | x |
| CC(=O)N1CCN(c2cccc(C)c2C)CC1 | 15% | 0.5% | -4% | 7 |
| CCC(Oc1ccccc1)C(=O)Nc1nc2c(s1)C(=O)CC(C)(C)C2 (stereo not given) | -7% | -1.8% | 0% | 1 |
| COc1ccc(NC(=O)Nc2cccc3c2O[C@H](CN(C)C(=O)Nc2c(C)noc2C)[C@@H](C)CN([C@H](C)CO)C3=O)cc1 | 4% | 0.3% | x | x |
| O=C(NCC1CCCO1)c1cccc(NS(=O)(=O)c2ccc(Br)cc2)c1 (stereo not given) | 14% | 4.0% | x | x |
| COc1ccc(-c2nc(-c3ccc(O)cc3O)cs2)cc1OC | -10% | u | -84% | 4 |
| CCOC(=O)c1c(C)noc1-c1ccc(Br)o1 | 38% | -2.7% | -4% | -8 |
| COc1ccc(OC(C)C(=O)N2CCc3ccccc3C2)cc1 (stereo not given) | 13% | 0.8% | 26% | -2 |
| CN1CCN(S(=O)(=O)c2ccc(NC(=O)COc3ccccc3Cl)cc2)CC1 | -3% | -0.7% | 0% | 5 |

The results go on:
| molecule | Rango dissoc inh | Rango-impB inh | miR-21 reporter | GLA inh pH 4.5 |
| --- | --- | --- | --- | --- |
| CCOc1ccc(N(CC(=O)NCc2ccccc2Cl)S(=O)(=O)c2c(C)[nH]c(=O)[nH]c2=O)cc1 | 4% | -4.2% | -2%&0% | x |
| COc1ccc(Cl)cc1NC(=S)Nc1ccccc1C | 14% | u | 3% | 3 |
| COC(CN(C)C(=O)c1ccc(CS(=O)(=O)c2ccccc2C)o1)OC | 40% | 4.8% | 2% | x |
| Cc1ccc(S(=O)(=O)N2C[C@@H]3CCCC[C@@H]3[C@@H](C)[C@H]2c2cn(Cc3ccccc3)c3ccc(F)cc23)cc1 | -12% | 6.5% | x | x |
| CN(C)CCOC(=O)NC12CC3CC(CC(C3)C1)C2 | 1% | -0.8% | -2% | -7 |
| Cc1cc(NC(=O)Cn2cc(C(F)(F)F)cc(Cl)c2=O)no1 | -6% | -2.9% | -6% | 6 |
| COc1ccc(OC)c(C2=Nn3c(nnc3-c3cc(C)[nH]n3)SC2)c1 | -3% | 5.0% | -9% | 1 |
| O=C(COc1ccc(S(=O)(=O)N2CCCCC2)cc1)NCc1ccccn1 | 2% | -0.9% | -1% | 0 |
| CC1CN(C(=O)CCC(=O)NCc2ccccc2)c2cc(Cl)ccc2O1 (stereo not given) | u | 3.9% | 5%&-14% | x |
| CCN(Cc1ccccc1)C(=O)Cn1c(=O)n(-c2ccc(OC)cc2OC)c(=O)c2c(C)c(C)sc21 | 5% | -1.2% | -1%&-2% | -18 |
| CCOC(=O)c1cc(C)nn1-c1nc(Cl)cc(OC)n1 | -10% | -0.9% | -3% | -5 |
| CC(C)(C)NC(=O)Cn1c(=O)c(=O)n(Cc2ccccc2)c2ccc(Cl)cc21 | 0% | 1.6% | -6% | 3 |
| Cc1ccsc1C(=O)NNC(=O)Nc1ccc(Cl)c(Cl)c1 | 4% | -0.1% | -26% | -1 |
| CC1(C)CC(=O)C(C=Nc2cccnc2/N=C/C2=C(O)CC(C)(C)CC2=O)=C(O)C1 | -30% | u | -1% | 6 |
| Cc1ccc(S(=O)(=O)N(C)c2ccc(OCC(=O)OCC(=O)N(CC#N)c3ccccc3)cc2)cc1 | 3% | -0.9% | x | x |
| CCN(CC)CCCNC(=S)N1CCN(c2nc(-c3ccccc3)cs2)CC1 | 9% | 6.5% | 17% | x |
| COC(=O)c1ccc(OC(=O)c2ccc(OCc3c(C)noc3C)c(OC)c2)cc1 | x | x | -1% | 3 |
| COC(=O)C1=CN(C)C=C(C(=O)OC)C1c1ccccc1Cl | u | u | -5% | u |
| Cc1ccc(C(=O)NNC(=O)CCn2nnc3ccccc32)cc1 | 0% | -1.3% | -1% | 6 |
| Cc1ccc(C)c(C(=O)CN2C(=O)NC3(CCC(C)CC3)C2=O)c1 (stereo not given) | 2% | 1.9% | -4% | 4 |
| Cc1ccc2c(C(=O)CCl)c(C)[nH]c2c1 | 9% | u | 26% | 3 |
| Cc1ccccc1OCCC(=O)OCC(=O)N1CCN(S(=O)(=O)c2ccc(Cl)cc2)CC1 | 8% | -0.4% | x | x |
| N/C(=N\OC(=O)COc1ccc(Br)cc1Cl)c1ccccn1 | 5% | -6.0% | -30% | 3 |
| O=C(Cn1cnc2c(nnn2Cc2ccccc2)c1=O)NCC1CCCO1 (stereo not given) | -2% | -2.6% | 0% | 8 |
| c1coc(-c2nc3ccccc3nc2-c2ccco2)c1 | u | u | -4% | 2 |
| Cc1ccc(S(=O)(=O)CS(=O)(=O)c2ccc(C)cc2)cc1 | 2% | -3.0% | x | x |
| O=C(COC(=O)CC1CCCCC1)Nc1c(Cl)cccc1Cl | -9% | 6.5% | x | x |
| Cc1ccc(NS(=O)(=O)Cc2ccccc2)nc1 | 3% | 0.1% | -36% | 8 |
| CC(C)(C)NC(=O)CN(C(=O)CNS(=O)(=O)c1ccc(Cl)cc1)c1ccc2c(c1)OCCO2 | 1% | 0.3% | 4% | x |
| CCOc1ccc(CC2CC(=O)NC2=O)cc1 (stereo not given) | -3% | -4.2% | -3% | -2 |
| O=C(NC1CCCCCCC1)c1ccccc1O | -21% | -0.8% | -43% | 3 |
| CCN1C(=O)NC2=C(C(=O)c3ccccc32)C1c1ccccc1F (stereo not given) | -8% | 6.8% | 7% | 1 |
